UCH37 inh – human UCH37 deubiquitinating enzyme inhibition; purified proteasome/UCH37, Ub-AMC cleavage fluorescence; inhibition, % (no concentration beside the values); AID 588478; 330,000 tested, 0.33% active; Q9Y5K5;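 active = mean of two replicates above 20%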;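 also: 0% = compound-free wells with enzyme and 100% = wells lacking proteasome; stock transfer was 100 nL into about 20 µL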
Target sequence (Q9Y5K5 whole entry, looked up): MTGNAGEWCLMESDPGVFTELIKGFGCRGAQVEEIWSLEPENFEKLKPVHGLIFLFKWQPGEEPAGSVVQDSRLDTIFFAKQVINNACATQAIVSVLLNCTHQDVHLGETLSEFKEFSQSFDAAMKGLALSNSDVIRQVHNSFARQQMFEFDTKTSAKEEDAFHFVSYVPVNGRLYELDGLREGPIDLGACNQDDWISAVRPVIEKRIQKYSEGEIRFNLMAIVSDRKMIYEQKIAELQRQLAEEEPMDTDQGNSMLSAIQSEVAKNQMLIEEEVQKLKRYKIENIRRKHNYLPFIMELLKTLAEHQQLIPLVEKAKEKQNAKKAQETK
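Material: human UCH37 enzyme supplied as purified proteasome complex / Amount: 0.15 nM proteasome as dispensed / Buffer or medium: pH 7.4 Tris-HCl (50 mM) with ovalbumin, ATP-MgCl2, DTT / Times: preincubation 30 min, reaction 25 min, room temperature / Technique: AMC fluorescence from Ub-AMC cleavage, excitation 355 nm, emission 460 nm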
* = called active by the depositor. Some of the compounds tested; rates above refer to the full screens.

SMILES | UCH37 inh
CCN(CC)C(=O)C1CCCN(c2ccc([N+](=O)[O-])cc2C=NNC(=O)c2cccc(O)c2)C1 (stereo not given) | 0.6
O=C(NN=Cc1ccccc1C(=O)O)c1ccncc1 | 2.0
CC(C)(C)c1ccc2c(c1)OC(C(=O)NN=Cc1ccccn1)CO2 (stereo not given) | 3.3
Cc1cc(C=NNC(=O)CC(=O)NC2CCCCC2)c(C)n1-c1cccc(Cl)c1Cl | 7.1
Cc1ccc(N2CC(C(=O)NN=Cc3cccc([N+](=O)[O-])c3)CC2=O)cc1 (stereo not given) | 3.4
Cn1ccccc1=Nc1cccc[n+]1C | -4.8
CC(=NNC(=O)COc1cccc(C)c1)c1ccc2ccccc2c1O | -86.3
COC(=O)c1sc(SC)c(S(=O)(=O)C(C)C)c1NN=C(C#N)S(=O)(=O)c1ccccn1 | 9.8
CC(CC(=O)Nc1cc(C)ccn1)=NNC(=O)c1ccc(C(C)(C)C)cc1 | 3.9
Cc1onc(-c2ccccc2)c1C(=O)NN=Cc1ccc(O)c([N+](=O)[O-])c1 | 15.1
CCOc1ccc(-c2c(C(=O)NN=Cc3ccncc3)nnn2-c2nonc2N)cc1 | 0.9
O=C(Oc1ccc(C=NO)cc1)c1ccccc1 | 1.3
COc1ccc(C=NNC(=O)c2cnccn2)cc1O | 3.3
O=S(=O)(NN=Cc1ccc2c(c1)OCO2)c1ccc(Cl)cc1 | 4.5
CC1(C)Cc2c(sc(N=CN3CCCCC3)c2C#N)C(C)(C)N1 | 10.3
Nc1nonc1-n1nnc(C(=O)NN=Cc2ccccc2)c1CN1CCc2ccccc21 | 1.1
CC(=NNc1ccc(C(=O)O)cc1)c1ccc(O)c(O)c1O | 20.8*
O=C(CC=NOCc1c(Cl)cccc1Cl)Oc1ccc(Cl)cc1Cl | 3.9
Cc1ccc(S(=O)(=O)N2CCN(CC(=O)NN=Cc3cc([N+](=O)[O-])ccc3Cl)CC2)cc1 | -0.2
Cc1c(C=NNC(=O)c2csc3ccccc23)cnn1C | 2.0
Cc1ccc(S(=O)(=O)N(C)Cc2ccc(C(=O)NN=C3CC(=O)CC(C)(C)C3)cc2)cc1 | 4.1
Cc1ccc(S(=O)(=O)NN=Cc2cccc([N+](=O)[O-])c2)cc1 | 2.6
COc1ccc(Br)cc1C=Nn1nnnc1N | -5.1
COCCNC(=O)C(=O)NN=C(C)CC(=O)Nc1ccc2c(c1)OCO2 | 5.8
CC(=NNC(=O)c1ccccc1)c1cc2cc([N+](=O)[O-])ccc2oc1=O | 5.3

(list continues)
SMILES | UCH37 inh
CN1CCN(N=Cc2ccc(N(C)c3ccccc3)cc2)CC1 | 3.8
CC(=NNS(=O)(=O)c1ccc(Cl)cc1)c1cccc(NC(=O)c2ccncc2)c1 | 4.1
N#CCCN(C(=O)CON=Cc1cccc([N+](=O)[O-])c1)c1ccccc1 | 2.2
CC(=NNC(=O)c1ccc(CN(C)S(=O)(=O)c2ccc(C)cc2)cc1)c1ccc(OC(F)F)cc1 | 5.7
CC(=NNS(=O)(=O)c1ccc(C(C)C)cc1)c1ccncc1 | 4.6
CC(=O)c1ccc(N2Cc3ccccc3C2=NC(=O)Nc2ccccc2)cc1 | 3.2
COc1cc(C=NNC(=O)c2ccc(CN3C(=O)c4cccc5cccc3c45)cc2)cc(OC)c1O | -10.8
Cc1nc2ccccn2c1C(=O)NN=Cc1ccccc1Cl | 4.5
COc1cc(C=NNC(=S)Nc2cccc(S(=O)(=O)N(C)C)c2)ccc1O | -13.0
O=C(CN1CCOCC1)NN=C/C(Br)=C\c1ccccc1 | 4.3
NC(=S)NN=Cc1cccc(O)c1O | 1.4
Cc1[nH]nc2c1C(=NO)CC(C)(C)C2 | 1.8
COC(=O)NN=Cc1cc(C)n(-c2ccccc2)c1C | 4.5
COc1ccc2nc(C)cc(NN=Cc3ccccc3)c2c1 | -8.5
CCCOc1ccc(-c2c(C(=O)NN=C(C)COc3ccccc3)nnn2-c2nonc2N)cc1 | 1.2
O=C(CSc1nc2ccccc2s1)NN=Cc1ccc(C(=O)O)cc1 | 1.3
Clc1ccccc1CON=C1CCCc2nonc21 | 3.6
COC(=O)c1ccc(C=NNC(=O)CCSc2nc3ccccc3s2)cc1 | 4.8
CC12CC(O)C3c4ccc(O)cc4CCC3C1CCC2=NO (stereo not given) | 0.4
CC(=NNc1ccc(S(=O)(=O)N2CCCCC2)cn1)c1cccc(Br)c1 | 3.1
Cc1cc(C)c(S(=O)(=O)N=C2C=C(SCC(=O)O)C(=O)c3ccccc32)cc1C | 48.9*
COc1cc(C=NNC(=O)c2ccc(-c3ccccc3)cc2)cc(OC)c1O | 0.1
Cc1ccc(NC(=S)NN=C2CCCCC2C)cc1 (stereo not given) | 2.5
CC(=NNC(=S)NC1CCCCC1)c1ccc(Cl)c(Cl)c1 | 1.5
Cc1ccc2nc(Cl)c(C=NNC(=O)CN3CCOCC3)cc2c1 | 5.5

Next structures follow:
SMILES | UCH37 inh
Fc1ccc(C=NNC(=S)NCCc2ccccc2)cc1F | 1.5
Cc1cc(C)n(N=Cc2ccccc2)c(=O)c1C#N | 8.6
Cc1cccc(C(=O)ON=C2CC3CCC2(C)C3(C)C)c1 (stereo not given) | 3.2
Cc1ccc(NC(=S)NC(=NS(=O)(=O)c2ccccc2)c2ccccc2)cc1 | 6.2
Cc1ccc(-n2nc(C)c(C=NNC(=O)c3cccnc3)c2Cl)cc1 | -1.0
CCN(CC)c1ccc(C=NNC(=O)c2c[nH]c3ccccc23)cc1 | -196.1
O=C(NN=Cc1ccc(F)cc1)c1ccc(OCc2ccccc2)cc1 | 3.4
O=C(NCCc1ccccc1)C(=O)NN=Cc1ccccc1C(F)(F)F | 1.5
CC(=NNc1ccc([N+](=O)[O-])cc1)c1ccco1 | 1.0
CC(CC(=O)Nc1ccccn1)=NNC(=O)c1cccc(C)c1 | -0.1
Cc1ccc(-c2csc3ncn(N=CN(C)C)c(=O)c23)o1 | 2.6
O=C(NN=Cc1c(F)c(F)c(F)c(F)c1F)c1cc(-c2ccccc2)nc2ccccc12 | 5.0
O=C(CCC(=O)Nc1ccccc1)NN=Cc1ccc2c(c1)OCO2 | 3.0
CCOc1ccc(C=NNC(=O)c2nnn(-c3nonc3N)c2COc2ccc(F)cc2)cc1 | -138.6
COc1cc(C=NNC(=O)c2cc(C34CC5CC(CC(C5)C3)C4)[nH]n2)ccc1O | 5.3
Cn1c(=O)n(C)c2cc(C=Nn3cnnc3)ccc21 | -35.7
O=C(NN=Cc1ccco1)c1cc(=O)[nH]c2ccccc12 | 7.6
S=C(NCCc1ccccc1)NN=Cc1ccccc1Cl | 6.7
CC(C=NNC(=S)Nc1cccc(S(=O)(=O)N(C)C)c1)c1ccccc1 (stereo not given) | 0.8
COc1cc(C=NNc2ccc(C(=O)O)cc2)cc(OC)c1OC | 13.9
O=C(CC=NOCc1ccc(Cl)cc1)c1cnc(-c2ccccc2)s1 | 2.9
CC(=NNC(=S)NCc1ccccc1)c1ccc(Cl)s1 | 5.4
O=[N+]([O-])c1ccc(C=NN2CCCCC2)cc1 | 5.2
CCCn1c(C=NNc2nc3ccccc3[nH]2)nc2ccccc21 | 7.1
ON=C1CCCc2ccccc21 | 1.2

Reprinted at random: three compounds from above, in no set order.
SMILES | UCH37 inh
O=C(CC=NOCc1ccc(Cl)cc1)c1cnc(-c2ccccc2)s1 | 2.9
O=C(CCC(=O)Nc1ccccc1)NN=Cc1ccc2c(c1)OCO2 | 3.0
Cc1cccc(C(=O)ON=C2CC3CCC2(C)C3(C)C)c1 (stereo not given) | 3.2

Going on with the list.
SMILES | UCH37 inh
COCc1cc(C)nc(OCC(=O)NN=Cc2cc(C)n(-c3cccc(C(F)(F)F)c3)c2C)c1C#N | 3.7
COC(=O)c1ccc(C=NN2CCN(Cc3ccc(C)cc3C)CC2)cc1 | 4.8
O=C(NN=Cc1ccc[nH]1)c1cc(-c2ccc(Cl)cc2)nc2ccccc12 | 3.3
CC(=NNc1nc(N2CCOCC2)nc(N2CCOCC2)n1)c1ccc([N+](=O)[O-])cc1 | 9.5
COc1ccc(C=NNC(=O)Cc2ccc(Cl)cc2)cc1OC | 34.8*
COc1cc(C=NNC(=O)CC(=O)NCCc2ccccc2)ccc1O | -1.0
CC(CC(=O)Nc1ccc(OCc2ccccc2)cc1)=NNC(=O)C(=O)Nc1cccc(C)c1 | 1.2
Cc1ccccc1C=NN1CCN(c2ccccc2)CC1 | 3.2
C/C(C=NNC(=O)Cn1cnc2ccccc21)=C\c1ccccc1 | 3.2
CSc1nnc(C(C)(C)C)c(=O)n1N=Cc1c(O)ccc2ccccc12 | -2.0
COC(=O)C(=NOCc1ccc(C#N)cc1)c1c(C)nn(C)c1C | 4.6
COc1ccc(-c2nnc(SCC(=O)NN=Cc3ccccc3C(=O)O)n2-c2ccccc2)cc1 | 0.9
CC1(C(=O)NN=Cc2ccc3c(c2)OCO3)CC1(Br)Br (stereo not given) | 3.3
O=C(NN=Cc1cc(Cl)ccc1O)c1ccccc1Br | -2.2
CC(=O)Nc1ccccc1NC(=O)CC(C)=NNC(=O)C(=O)N1CCCCC1 | 3.7
COc1ccc(C=NNC(=O)c2ccc(CN3C(=O)c4cccc5cccc3c45)cc2)cc1O | -55.3
CC(=NNC(=O)c1csc(C)c1C)c1ccco1 | 6.0
CCOc1ccc(C=NNc2ccccn2)cc1OC | 12.3
O=C(CCc1ccccc1)NN=Cc1cccc(O)c1 | 2.5
O=C(/C=C\c1ccccc1)NCC(=O)NN=Cc1ccc(O)cc1O | 1.9
CCOc1ccc(C(CCC(=O)O)=NNC(=O)c2cccc(S(=O)(=O)Nc3ccccc3OC)c2)cc1 | 2.5
COc1cc(C=NNC(=O)c2cccc3ccccc23)cc(OC)c1O | 1.8
OCC(O)C=NNc1nc(Nc2ccccc2)nc(Nc2ccccc2)n1 (stereo not given) | 3.2
N#CCC(=O)NN=Cc1ccc(SCC(=O)Nc2ccccc2)o1 | 1.5
C(=NNc1nc(Nc2ccccc2)nc(Nc2ccccc2)n1)c1cccnc1 | 2.2

Marked active in UCH37 inh (from the list above):
SMILES | UCH37 inh
CC(=NNc1ccc(C(=O)O)cc1)c1ccc(O)c(O)c1O | 20.8*
Cc1cc(C)c(S(=O)(=O)N=C2C=C(SCC(=O)O)C(=O)c3ccccc32)cc1C | 48.9*
COc1ccc(C=NNC(=O)Cc2ccc(Cl)cc2)cc1OC | 34.8*

Back to the main list, starting 5 compounds before the break.
SMILES | UCH37 inh
CCOc1ccc(C(CCC(=O)O)=NNC(=O)c2cccc(S(=O)(=O)Nc3ccccc3OC)c2)cc1 | 2.5
COc1cc(C=NNC(=O)c2cccc3ccccc23)cc(OC)c1O | 1.8
OCC(O)C=NNc1nc(Nc2ccccc2)nc(Nc2ccccc2)n1 (stereo not given) | 3.2
N#CCC(=O)NN=Cc1ccc(SCC(=O)Nc2ccccc2)o1 | 1.5
C(=NNc1nc(Nc2ccccc2)nc(Nc2ccccc2)n1)c1cccnc1 | 2.2
CC1(C)S/C(=N/N=Cc2ccco2)NC1=O | 13.5
O=C(O)c1ccc(C=NNc2ncc(C(F)(F)F)cc2Cl)cc1 | 16.1
COCc1c(C(=O)NN=Cc2c[nH]c3ccccc23)nnn1-c1nonc1N | -27.0
Cc1nc(C(=NO)C(N)=O)cs1 | 1.9
CCOc1ccc(C=NNC(=S)NC2CC3CC2C2C=CCC32)cc1 (stereo not given) | 4.6
Cc1ccc2cc(C=NNC(=O)[C@H](C)NC(=O)OC(C)(C)C)c(Cl)nc2c1 | 1.8
O=C(NN=Cc1ccccn1)C1CC1 | -0.5
Cn1c(=O)n(C)c2cc(C=N/N=C3/NC(=O)C(CC(=O)O)S3)ccc21 (stereo not given) | 12.3
CC(=NNS(=O)(=O)c1ccc(Cl)c([N+](=O)[O-])c1)c1cc2ccccc2o1 | 4.5
COc1ccc(OC)c(C(C)=NNc2ccc(C(=O)O)cc2)c1 | 1.2
CC(=NNC(=O)c1cc(-c2ccc(C)s2)[nH]n1)c1ccco1 | 3.6
COc1cccc(C=NNC(=O)c2ccc(Cn3cc(Br)c([N+](=O)[O-])n3)o2)c1O | 4.4
CC(=NNC(=O)c1ccc2c(c1)OCO2)c1cccc(NC(=O)C(C)(C)C)c1 | 5.7
COc1ccc(C=NNC(=O)c2ccccc2Br)cc1COc1ccc(F)cc1 | 0.5
COc1ccc(C(C)=NOCC(=O)N=Nc2c(O)[nH]c3ccccc23)cc1 | 4.2
Cc1ccc(S(=O)(=O)N=Cc2c(O)ccc3ccccc23)cc1 | 1.9
COc1ccc2c(c1)-c1nc(N=Cc3ccc(O)c(OC)c3)sc1CC2 | 9.4
CC(C)CNC(=O)C(=O)NN=Cc1cccs1 | 8.9
COc1ccc(-n2c(SCC(=O)NN=C(C)c3cccnc3)nc3ccccc3c2=O)cc1 | 2.8
COc1ccccc1N1CCN(N=C/C(Br)=C/c2ccccc2)CC1 | 6.0
CCOc1ccc(CC(=O)NN=Cc2sccc2C)cc1 | 2.5
O=C(O)COc1ccccc1C=NNC(=O)c1ccc(F)cc1 | 2.5
COc1ccc(OC)c(C=NNC(=O)CC(=O)NCCc2ccccc2)c1 | -140.5
C=CCN1C(=O)C(CC(=O)Nc2ccccc2F)SC1=Nc1nccs1 (stereo not given) | 4.1
CCCOc1ccc(C=NNC(=O)CCc2n[nH]c(=O)[nH]c2=O)cc1OC | 0.3

Next structures
SMILES | UCH37 inh
CCCc1c(C(=O)NN=Cc2ccccc2C(F)(F)F)nnn1-c1nonc1N | 5.7
COc1cccc(C=Nn2c(-c3cc(C)[nH]n3)n[nH]c2=S)c1OC | 1.9
Cc1cc(C)nc(NN=C2CCSc3ccc(F)cc32)n1 | 4.1
CC(=NNC(=O)c1nn(C)cc1Br)c1cccc(NC(=O)c2ccncc2)c1 | 1.7
C/C(C=NNC(=O)c1nnn(-c2nonc2N)c1C(C)C)=C\c1ccco1 | -16.9
CC(=NOc1nc(C)cc(C)n1)c1ccc(Cl)cc1Cl | -1.2

Quoted from the listing:
C(=NNc1nc(Nc2ccccc2)nc(Nc2ccccc2)n1)c1cccnc1 in UCH37 inh = 2.2
CC(=NNC(=O)c1csc(C)c1C)c1ccco1 in UCH37 inh = 6.0

Compound activity as filed in PubChem BioAssay.
